D1 antag – human D1 dopamine receptor antagonism. P21728. HEK293 TREx D1 cells, calcium flux, dopamine EC80; hits give low values. activity change, negative = inhibition, % at 10 µM. actives 3.2% (n = 360,000). AID 504652; in the data active = activity change below about -30%; note: % is set by controls: 0 for no effect and ±100 for the full control effect
Target sequence (P21728 whole entry, looked up): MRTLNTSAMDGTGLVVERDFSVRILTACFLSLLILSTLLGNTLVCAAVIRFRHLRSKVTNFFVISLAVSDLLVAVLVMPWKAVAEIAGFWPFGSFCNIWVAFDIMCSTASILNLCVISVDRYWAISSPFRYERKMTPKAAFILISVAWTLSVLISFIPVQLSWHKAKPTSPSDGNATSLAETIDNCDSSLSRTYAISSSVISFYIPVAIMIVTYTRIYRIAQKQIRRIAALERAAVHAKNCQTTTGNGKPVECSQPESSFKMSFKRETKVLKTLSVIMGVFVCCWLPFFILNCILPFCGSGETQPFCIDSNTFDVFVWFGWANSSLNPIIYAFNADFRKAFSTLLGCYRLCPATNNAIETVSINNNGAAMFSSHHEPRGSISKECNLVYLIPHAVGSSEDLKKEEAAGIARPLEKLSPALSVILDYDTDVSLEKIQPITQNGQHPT
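Calcium flux readout: force-coupled, inducible Hek293 Trex D1 line, cells induced overnight at 30 C with tetracycline, dye-loaded 30–90 min at RT. Antagonism scored against EC80 dopamine challenge given 180 s after compound.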
D2 potentiator – D2 dopamine receptor (human) potentiation. P14416. HEK293 T-REx D2, calcium flux, EC20 dopamine potentiation. potentiation, % at 10 µM. actives 0.34% (n = 340,000). AID 485347;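 active = potentiation over 3 SD above the plate norm, cut at about 30% in these data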; note: 0% is about no effect
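Primary screen. Calcium kinetics in induced HEK293 T-REx D2 cells: compound pre-addition 180 s, EC20 dopamine, 180 s more.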
D1 potentiator – potentiators of human D1 dopamine receptor; HEK293 TREx D1 cells, calcium flux, dopamine EC20 potentiation; potentiation, % at 10 µM; actives 0.036% (n = 360,000); in the data active = potentiation above about 30%; note: 0% is about no effect
Glioma ERSR ind – induces the endoplasmic reticulum stress response in human glioma cells; U87-MG GRP78 promoter luciferase reporter, 16 h; Potency, µM, for the others: at the highest dose activation, actives largely listed as activators; actives 0.02% (n = 420,000); note: potency is the fitted concentration of half-maximal effect; series mostly up to about 76 µM; % of control where 0% means no effect; nearly all actives have a fitted effect of over 35% in size
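ERSR induction read as luciferase luminescence (Bright-Glo, 10 min at room temperature) in stably transfected human U87-MG glioma cells exposed to compounds for 16 h, using GRP78 as sensor.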
Vif-APOBEC3F blk – blocks the Vif interaction with APOBEC3F. Potency, µM (highest dose often 46.1 µM), inactives show at the highest dose activity, negative = active. AID 602313. actives 0.2% (n = 390,000). HeLa A3F-eYFP + Vif (tagged APOBEC3F with the HIV-1 protein that degrades it), YFP fluorescence increase; note: potency is the fitted concentration of half-maximal effect; % of control where 0% means no effect; nearly all actives have a fitted effect of over 65% in size
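HeLa cells stably expressing Vif plus C-terminally eYFP-tagged A3F were seeded, incubated overnight at 37 deg C, dosed with compound, incubated overnight again at 37 deg C. Yellow fluorescence (Ex 488/Em 500-530) reported blocked Vif-mediated A3F-eYFP degradation.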
Vif-APOBEC3G blk – blocks the Vif interaction with human APOBEC3G | Q9HC16 | actives 0.076% (n = 410,000) | Potency, µM (top dose mostly 46.1 µM), for inactives: at the top dose activity, negative = active, hits mostly inhibitors | AID 602310 | HeLa A3G-eYFP + Vif (tagged APOBEC3G with the HIV-1 protein that degrades it), YFP fluorescence, overnight;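 note: potency is the fitted concentration of half-maximal effect; % is set by controls: 0 for no effect and ±100 for the full control effect; nearly all actives have a fitted effect of over 60% in size; hits raise eYFP signal because A3G escapes Vif-driven loss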
Target sequence (Q9HC16 whole entry, looked up): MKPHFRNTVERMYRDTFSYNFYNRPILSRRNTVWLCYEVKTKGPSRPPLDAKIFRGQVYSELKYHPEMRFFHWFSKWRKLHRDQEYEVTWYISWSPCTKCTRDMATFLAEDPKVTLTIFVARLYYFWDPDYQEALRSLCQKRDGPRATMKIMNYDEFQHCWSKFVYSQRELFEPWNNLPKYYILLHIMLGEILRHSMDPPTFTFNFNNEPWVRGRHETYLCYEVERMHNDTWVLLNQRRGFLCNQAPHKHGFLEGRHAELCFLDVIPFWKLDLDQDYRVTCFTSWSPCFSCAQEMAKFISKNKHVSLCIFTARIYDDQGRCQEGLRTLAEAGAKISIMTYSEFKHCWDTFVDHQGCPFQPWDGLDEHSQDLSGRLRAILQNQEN
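HeLa cells stably expressing Vif and C-terminally eYFP-tagged A3G, seeded overnight at 37 deg C, then exposed to compound by pintool overnight at 37 deg C. Rise in yellow fluorescence (Ex 488/Em 500-530, Acumen) marks blocked Vif-driven A3G degradation.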
D1 ag – activates the human D1 dopamine receptor; P21728; HEK293 T-REx D1 cells, calcium flux, agonist mode; activation, % at 2 µM; actives 1% (n = 360,000); AID 504660; in the data active = activation above about 30%; note: 0% is about no effect
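Tetracycline-induced HEK293 TREx D1 cells, force-coupled to calcium signalling, were dye-loaded with a no-wash calcium kit. Compound was pin-added after a 10 s baseline. Fluorescence was read kinetically at 1 cycle/s for 180 s, with calcium rises flagged as agonism.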
* hit, by the source's call; & = joins results of further samples. Unless noted, calls come from the whole dose curve; as a rule, active = well fitted curve in the direction sought with a large enough effect; inconclusive = small, poorly fitted or top-dose-only effect, or another doubt; inactive = no such curve, though single readings can be large; an effect the other way counts as inactive or inconclusive. An excerpt (hit frequency here may not be typical).

Screening COc1ccccc1C1/C(=C(/O)c2ccccc2)C(=O)C(=O)N1CC(C)O (configuration not stated) returned D1 antag 8, D2 potentiator -3, D1 potentiator -2, Glioma ERSR ind -3%, Vif-APOBEC3G blk 0% and D1 ag 1.
For CCc1cc(-c2n[nH]c(C)c2-c2nc3ccccc3s2)c(O)cc1OCC(=O)NN the results were D1 antag -8, D2 potentiator 0, D1 potentiator -5, Glioma ERSR ind -2%, Vif-APOBEC3F blk 0%, Vif-APOBEC3G blk -1% and D1 ag 3.
`CCC(C)(C)n1nnnc1C(c1cc2cccc(C)c2[nH]c1=O)N1CCN(C(=O)c2ccco2)CC1` (configuration not stated) gave D1 antag 24, D2 potentiator 9, D1 potentiator -4, Glioma ERSR ind -3%, Vif-APOBEC3F blk -1%, Vif-APOBEC3G blk 0% and D1 ag 3.
`CCC(CC)C(=O)Nc1ccc(OCc2cc(=O)n3ccc(C)cc3n2)cc1` gave D1 antag -5, D2 potentiator -18, D1 potentiator -3, Glioma ERSR ind 0%, Vif-APOBEC3F blk -1%, Vif-APOBEC3G blk 2% and D1 ag 0.
COc1ccc(N2CC(NC(=O)N3CCN(C(=O)c4ccco4)CC3)CC2=O)cc1OC (configuration not stated) was read as D1 antag 2, D2 potentiator -15, D1 potentiator 1, Glioma ERSR ind -4%, Vif-APOBEC3F blk -3%, Vif-APOBEC3G blk 0% and D1 ag 0.
For O=C(CSc1nc2ccccc2nc1Cc1ccccc1)NCc1ccccc1Cl the results were D1 antag -11, D2 potentiator -7, D1 potentiator 1, Glioma ERSR ind -3%, Vif-APOBEC3F blk -1%, Vif-APOBEC3G blk 0% and D1 ag 0.
`Cc1ccc2[nH]c(=O)c(-c3noc(CC(C)C)n3)cc2c1` gave D1 antag -19, D2 potentiator -2, D1 potentiator -4, Glioma ERSR ind 4%, Vif-APOBEC3F blk -6%, Vif-APOBEC3G blk -1% and D1 ag -1.
For c1cncc(C(c2nnnn2C2CCCC2)N2CCCC2)c1 (configuration not stated) the results were D1 antag -17, D2 potentiator -4, D1 potentiator 1, Glioma ERSR ind -4%, Vif-APOBEC3F blk -1%, Vif-APOBEC3G blk 0% and D1 ag 6.
Screening Cc1cc(NC(=O)c2cc(-c3ccc(Br)cc3)on2)nn1Cc1ccc(Cl)cc1 returned D1 antag -4, D2 potentiator -2, D1 potentiator 0, Glioma ERSR ind -3%, Vif-APOBEC3F blk -1%, Vif-APOBEC3G blk 2% and D1 ag 0.
For O=C(C1=C(O)C(=O)N(CC2CCCO2)C1c1ccccc1F)c1ccco1 (configuration not stated) the results were D1 antag 11, D2 potentiator 9, D1 potentiator 2, Glioma ERSR ind -1%, Vif-APOBEC3F blk 2%, Vif-APOBEC3G blk -1% and D1 ag 2.
`Cc1csc2nc(COC(=O)c3ccc(NC(=O)COc4ccccc4F)cc3)cc(=O)n12` gave D1 antag -26, D2 potentiator 7, D1 potentiator 0, Glioma ERSR ind -3%, Vif-APOBEC3F blk -1%, Vif-APOBEC3G blk 1% and D1 ag 22.
Screening O=C(CSc1ccc2ccccc2c1Br)Nc1cccc(S(=O)(=O)NC2=NCCCCC2)c1 returned D1 antag -6, D2 potentiator 4, D1 potentiator 2, Glioma ERSR ind -4%, Vif-APOBEC3F blk -5%, Vif-APOBEC3G blk -6% and D1 ag 8.
CSc1nc(SC(C)C(=O)O)c2c3c(sc2n1)COC(C)(C)C3 (configuration not stated) was read as D1 antag -25, D2 potentiator -4, D1 potentiator -4, Glioma ERSR ind 3%, Vif-APOBEC3F blk 12%, Vif-APOBEC3G blk 2% and D1 ag 0.
For Cc1ccc(-c2nc(CN(C)C3CCOCC3)c(C)o2)s1 the results were D1 antag -1, D2 potentiator -9, D1 potentiator 0, Glioma ERSR ind 2%, Vif-APOBEC3F blk 1%, Vif-APOBEC3G blk 0% and D1 ag 1.
For COc1ccc(CN2C(=O)c3cccnc3C2=O)cc1S(=O)(=O)N1CCOc2ccccc21 the results were D1 antag -8, D2 potentiator -2, D1 potentiator -1, Glioma ERSR ind -5%, Vif-APOBEC3F blk -9%, Vif-APOBEC3G blk -1% and D1 ag 1.
Screening COc1ccc(N2CC(C(=O)N3CCN(C(=O)c4ccco4)CC3)CC2=O)cc1 (configuration not stated) returned D1 antag -1, D2 potentiator 5, Glioma ERSR ind -2%, Vif-APOBEC3F blk 0%, Vif-APOBEC3G blk 1% and D1 ag 3.
For O=C(NC1(C(F)(F)F)C(=O)Nc2c1c(=O)[nH]c(=O)n2-c1ccccc1)c1ccccc1Cl (configuration not stated) the results were D1 antag -1, D2 potentiator 21, D1 potentiator -4, Glioma ERSR ind -3%, Vif-APOBEC3F blk 0%, Vif-APOBEC3G blk 5% and D1 ag 0.
Screening O=C1C(=O)N(CCCn2ccnc2)C(c2cccc(Br)c2)/C1=C(\O)c1ccc2c(c1)OCCO2 (configuration not stated) returned D1 antag 2, D2 potentiator 10, D1 potentiator -1, Glioma ERSR ind -1%, Vif-APOBEC3F blk -6%, Vif-APOBEC3G blk 0% and D1 ag 1.
`CCc1nc(-c2cc3ccc(C)cc3[nH]c2=O)no1` gave D1 antag 4, D2 potentiator 5, D1 potentiator -11, Glioma ERSR ind 4%, Vif-APOBEC3F blk 4%, Vif-APOBEC3G blk -1% and D1 ag 2.
Screening O=C(c1ccc(Cl)cc1)C(CN1CCCCC1)c1ccccc1 (configuration not stated) returned D1 antag -16, D2 potentiator -5, D1 potentiator -4, Glioma ERSR ind -19%, Vif-APOBEC3F blk 6%, Vif-APOBEC3G blk -16% and D1 ag 0.
`CC(C)(O)C(=O)NN(C(=O)c1ccccc1)c1cccc(Br)c1` gave D1 antag -5, D2 potentiator 6, D1 potentiator -7, Glioma ERSR ind -3%, Vif-APOBEC3F blk -4%, Vif-APOBEC3G blk -2% and D1 ag -1.
Screening CCOC(=O)c1ccc(NC(=O)CSc2nc(-c3ccc(F)cc3)cc(C(F)(F)F)c2C#N)cc1 returned D1 antag 1, D2 potentiator 5, D1 potentiator -2, Glioma ERSR ind 0%, Vif-APOBEC3F blk inconclusive, Vif-APOBEC3G blk -8% and D1 ag 9.
COc1ccc(NC(=O)CSc2nncn3c2cc2occc23)c(OC)c1 was read as D1 antag -2, D2 potentiator 6, D1 potentiator -1, Glioma ERSR ind -4%, Vif-APOBEC3F blk 11%, Vif-APOBEC3G blk -2% and D1 ag 1.
Screening CCc1c(SCCC(=O)O)nc2ccccc2c1C returned D1 antag 3, D2 potentiator 6, D1 potentiator -1, Glioma ERSR ind 5%, Vif-APOBEC3F blk -18%, Vif-APOBEC3G blk 0% and D1 ag 1.
Cc1nc2c(sc3nc(N4CCOCC4)c4c(c32)CC(C)(C)OC4)c(-c2ccccc2)c1C(=O)O was read as D1 antag 3, D2 potentiator 9, D1 potentiator 4, Glioma ERSR ind -1%, Vif-APOBEC3F blk -4%, Vif-APOBEC3G blk -17% and D1 ag 6.
Cn1c(=NC(=O)c2ccc3c(c2)OCCO3)sc2cc(S(C)(=O)=O)ccc21 was read as D1 antag 2&-2, D2 potentiator 19&8, D1 potentiator -10&-3, Glioma ERSR ind 3%&-1%, Vif-APOBEC3F blk -3%&1%, Vif-APOBEC3G blk 5%&7% and D1 ag 2&1.
For COc1ccc(-c2n[nH]c(=S)o2)c(OC)c1 the results were D1 antag -13, D2 potentiator 10, D1 potentiator -3, Glioma ERSR ind 1%, Vif-APOBEC3F blk 6%, Vif-APOBEC3G blk -3% and D1 ag 0.
For CCOC(=O)c1ccc(NC(=O)c2ccc3c(c2)NC(=O)c2ccccc2S3)cc1 the results were D1 antag 1, D2 potentiator 1, D1 potentiator -3, Glioma ERSR ind -4%, Vif-APOBEC3F blk 5%, Vif-APOBEC3G blk 0% and D1 ag 7.
`Cc1nc(-c2cccnc2)sc1C(=O)Nc1ccc(C(F)(F)F)cc1` gave D1 antag -33*, D1 potentiator -3, Glioma ERSR ind -6%, Vif-APOBEC3F blk -1%, Vif-APOBEC3G blk -1% and D1 ag 2.
For C=CCn1c(CCNC(=O)c2cccs2)nnc1SCC(=O)Nc1cccc(Cl)c1C the results were D1 antag -8, D2 potentiator -5, D1 potentiator 2, Glioma ERSR ind -5%, Vif-APOBEC3F blk -5%, Vif-APOBEC3G blk -6% and D1 ag 1.
`CCOC(=O)CNc1nnc(SCC(=O)OCC)[nH]c1=O` gave D1 antag 0, D2 potentiator 2, D1 potentiator 0, Glioma ERSR ind -15%, Vif-APOBEC3F blk -7%, Vif-APOBEC3G blk -29% and D1 ag 1.
`COC(=O)CSc1ccnc2cc(Cl)ccc12` gave D1 antag -21, D2 potentiator 1, D1 potentiator -6, Glioma ERSR ind -12%, Vif-APOBEC3F blk 0%, Vif-APOBEC3G blk -2% and D1 ag 6.
For CCC(=O)N(CCC(c1ccc(C)cc1)c1ccco1)Cc1ccco1 (configuration not stated) the results were D1 antag -9, D2 potentiator 3, D1 potentiator -9, Glioma ERSR ind 3%, Vif-APOBEC3F blk -4%, Vif-APOBEC3G blk -7% and D1 ag 2.
Cc1cccc(Cn2c(=O)n(Cc3ccco3)c(=O)c3ccccc32)c1 was read as D1 antag -15, D2 potentiator -5, D1 potentiator 1, Glioma ERSR ind 1%, Vif-APOBEC3F blk 4%, Vif-APOBEC3G blk -16% and D1 ag 2.
`COc1ccc(NC(=O)NNC(=O)COc2ccc3cc(Br)ccc3c2)c(OC)c1` gave D1 antag -32*, D2 potentiator 0, D1 potentiator -1, Glioma ERSR ind -1%, Vif-APOBEC3F blk 1%, Vif-APOBEC3G blk 5% and D1 ag 5.
`Cc1ccc(-c2nn(-c3ccccc3)c3[nH]c(=O)c(CNCc4ccccc4)cc23)cc1` gave D1 antag 19, D2 potentiator -15, D1 potentiator 7, Glioma ERSR ind -2%, Vif-APOBEC3F blk -1%, Vif-APOBEC3G blk 0% and D1 ag -2.

Five records picked at random from the list so far, as already listed:
For Cc1ccc(-c2nc(CN(C)C3CCOCC3)c(C)o2)s1 the results were D1 antag -1, D2 potentiator -9, D1 potentiator 0, Glioma ERSR ind 2%, Vif-APOBEC3F blk 1%, Vif-APOBEC3G blk 0% and D1 ag 1.
`CCC(CC)C(=O)Nc1ccc(OCc2cc(=O)n3ccc(C)cc3n2)cc1` gave D1 antag -5, D2 potentiator -18, D1 potentiator -3, Glioma ERSR ind 0%, Vif-APOBEC3F blk -1%, Vif-APOBEC3G blk 2% and D1 ag 0.
`Cc1ccc(-c2nn(-c3ccccc3)c3[nH]c(=O)c(CNCc4ccccc4)cc23)cc1` gave D1 antag 19, D2 potentiator -15, D1 potentiator 7, Glioma ERSR ind -2%, Vif-APOBEC3F blk -1%, Vif-APOBEC3G blk 0% and D1 ag -2.
`CCC(C)(C)n1nnnc1C(c1cc2cccc(C)c2[nH]c1=O)N1CCN(C(=O)c2ccco2)CC1` (configuration not stated) gave D1 antag 24, D2 potentiator 9, D1 potentiator -4, Glioma ERSR ind -3%, Vif-APOBEC3F blk -1%, Vif-APOBEC3G blk 0% and D1 ag 3.
For CCc1cc(-c2n[nH]c(C)c2-c2nc3ccccc3s2)c(O)cc1OCC(=O)NN the results were D1 antag -8, D2 potentiator 0, D1 potentiator -5, Glioma ERSR ind -2%, Vif-APOBEC3F blk 0%, Vif-APOBEC3G blk -1% and D1 ag 3.
